TRPML1 inh: blocks the human TRPML1 channel. activity change, negative = inhibition, % (concentration not given with the values). 390,000 compounds, 0.02% hits. TRPML1-inducible cells, Ca2+ dye fluorescence, FDSS; hits give low values; inhibition of EC80 agonist-evoked calcium signal; in the data active means activity change below about -50%; inconclusive means about -30% to -50%; inactive means above about -30%;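 further: stimulus is agonist 54-4 at its EC80 concentration; on the % scale 0 is the no-effect control and ±100 the full control effect; the text of the record puts the active cut at -80%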
Target sequence (Q9GZU1 whole entry, looked up): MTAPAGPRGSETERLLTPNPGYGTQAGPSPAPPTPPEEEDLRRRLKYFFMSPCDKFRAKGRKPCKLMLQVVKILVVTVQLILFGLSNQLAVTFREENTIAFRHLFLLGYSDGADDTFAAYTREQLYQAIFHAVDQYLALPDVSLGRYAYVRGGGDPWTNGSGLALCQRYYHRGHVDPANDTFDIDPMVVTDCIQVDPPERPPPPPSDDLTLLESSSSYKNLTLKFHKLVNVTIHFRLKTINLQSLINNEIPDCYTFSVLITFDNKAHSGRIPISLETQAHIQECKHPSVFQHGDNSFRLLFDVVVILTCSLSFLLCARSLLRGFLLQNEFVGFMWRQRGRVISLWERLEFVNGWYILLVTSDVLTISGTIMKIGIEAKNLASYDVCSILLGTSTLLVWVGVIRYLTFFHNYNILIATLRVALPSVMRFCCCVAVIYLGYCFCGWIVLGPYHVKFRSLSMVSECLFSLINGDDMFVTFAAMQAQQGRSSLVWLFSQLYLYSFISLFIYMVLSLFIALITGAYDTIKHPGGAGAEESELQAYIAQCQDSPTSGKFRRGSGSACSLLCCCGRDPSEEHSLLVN
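Calcium fluorescence in TRPML1-DL cells induced overnight with Tet: a 110 s read after compound pin addition, then a 110 s antagonist read after challenge with 54-4 at 4 uM final (EC80).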
TRPML1 ag: human mucolipin-1 channel agonism; Q9GZU1; TRPML1-expressing cells, Ca2+ dye fluorescence, FDSS; host cell line not named in the record; reference of the full effect not given here; activation, % (no concentration beside the values); 410,000 compounds, 0.12% hits; AID 624414; in the data active = activation above about 50%; inconclusive = about 30% to 50%; inactive = below about 30%; further: 0% is about no effect; the text of the record puts the active cut at 80%
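Kinetic FDSS Ca2+ read in Tet-induced TRPML1-DL cells (ABD Ca8 dye plus quencher, 45-90 min RT loading): baseline, then compound, then 110 s agonist window; EC80 agonist 54-4 at 4uM final added afterwards for a 110 s antagonist window.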
Menin MLL FP FL: displaces fluorescein MLL peptide from human menin. Fluorescence polarization, fluorescein-MLL peptide displacement from menin. FP activity change, % at 61.4 µM. 290,000 tested, under 10 active. AID 1766; inconclusive = falling polarisation curve, or a change in total fluorescence; inactive = total fluorescence flat and polarisation flat or rising; no compound was filed as active; the % refers to the polarisation; negative = inhibition;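 further: % of control where 0% means no effect; inhibitors lower the polarisation; unlabelled MLL peptide was the positive control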
gsp ag: agonists of gsp mutant (McCune-Albright syndrome) | gsp mutant cells, cAMP HTRF, 30 min; control for the full effect not named in the record | 340,000 compounds, 0.13% hits | Potency, µM (titrated, usually from 76.9 µM), for the others: top-dose activation (cAMP increase), usual class: activators; active = well fitted activation curve with a large enough effect; inconclusive = small, poorly fitted or top-dose-only effect, or another doubt; inactive = no such curve, though single readings can be large or run the other way; cell line not stated here;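 further: phosphodiesterase inhibitor Ro 20-1724 added with compounds to block cAMP breakdown; potency means the concentration at half of the fitted maximal effect; nearly all actives have a fitted effect of over 60% in size; about a fifth of the inactives were tested at one dose only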
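Cells stably selected in G418 were plated at 2000/well, grown 16-24 hr, then given compounds in DMSO with the PDE inhibitor […] (300 uM solution added) for 30 min at 37C; cAMP was read by HTRF.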
gsp antag: antagonists of gsp mutant (McCune-Albright syndrome); gsp-mutant cells, cAMP HTRF, 30 min; control for the full effect not named in the record; Potency, µM (top dose mostly 76.9 µM), without a hit: top-dose activity change, negative = inhibition, most hits filed as inhibitors; 340,000 compounds, 0.4% hits; AID 624288; active = falling curve of any shape with a large fitted effect; inconclusive = falling curve, mostly with a smaller effect; inactive = flat or rising curve; cell line not stated here;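 further: intracellular cAMP measured with PDE inhibitor Ro 20-1724 present during compound exposure; potency means the concentration at half of the fitted maximal effect; on the % scale 0 is the no-effect control and ±100 the full control effect; nearly all actives have a fitted effect of over 65% in size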
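G418-selected cells were plated in DMEM/10% FBS for 16-24 h at 37C, then treated with compounds plus the PDE inhibitor […] (300 uM solution added) for 30 min at 37C. Intracellular cAMP was measured by HTRF after 30 min lysis at room temperature.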
ClpP mod: qHTS Assay for Activators of ClpP. ATP-dependent Clp protease proteolytic subunit (Bacillus subtilis (strain 168)), P80244. purified B. subtilis ClpP, FRET peptide cleavage, 20 min. Potency, µM (highest dose often 57.5 µM), without a hit: at the highest dose activity change, negative = active. 340,000 compounds, 1.9% hits. AID 651965, 2013; active = well fitted falling curve with a large enough effect; inconclusive = small, poorly fitted or top-dose-only effect; inactive = no such curve, though single readings can be large or run the other way; further: potency means the concentration at half of the fitted maximal effect; the source files actives as falling curves though it sought activators and does not explain the sign; nearly all actives have a fitted effect of over 65% in size; many hits overshoot -100%
Target sequence (P80244 whole entry, looked up): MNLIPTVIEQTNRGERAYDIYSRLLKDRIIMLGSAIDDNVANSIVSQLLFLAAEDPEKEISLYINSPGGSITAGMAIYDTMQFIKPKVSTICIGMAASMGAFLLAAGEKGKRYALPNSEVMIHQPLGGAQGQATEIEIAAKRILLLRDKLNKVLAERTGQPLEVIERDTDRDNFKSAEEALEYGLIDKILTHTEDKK
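Buffer: 100 mM Tris/HCl pH8, 100 mM KCl, 0.05% low protease BSA, 2.5% glycerol, 0.01% Tween-20. ClpP 10 microg/mL final; 20 min RT; delta FRET normalized to ADEP and DMSO controls.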
* marks the source's active call; other numbers are inactive results; [ ] = remark or other dose.

For CC(=O)c1cccc(NC(=O)CCc2c(C)nc3nc(CN)nn3c2C)c1 the results were TRPML1 inh 3.8, TRPML1 ag 0.5 and ClpP mod -5.5%.
For O=S(=O)(O/N=C1\CCCc2ccccc21)c1ccccc1 the results were TRPML1 inh 2.9, TRPML1 ag 0.0, Menin MLL FP FL -2.8, gsp ag inconclusive, gsp antag 12.4% and ClpP mod 3.1%.
`COc1ccc(CNC(=O)C[C@H]2C(=O)N(C3CCCCC3)C[C@@H]2Cc2ccccc2)cc1` gave TRPML1 inh -16.1, TRPML1 ag -0.3, Menin MLL FP FL 1.1, gsp ag 7.1%, gsp antag 1.2% and ClpP mod 2.2%.
CCC(C)NC(=O)CSc1nnc(-c2ccc(Cl)cc2)n1N (stereo not drawn) was read as TRPML1 inh -6.5, TRPML1 ag 1.0, Menin MLL FP FL 2.1, gsp ag -19.3%, gsp antag 11.2% and ClpP mod 0.2%.
Cc1sc2nc(CSCC(=O)N3CC(C)OC(C)C3)[nH]c(=O)c2c1C (stereo not drawn) was read as TRPML1 inh -1.6, TRPML1 ag -1.3, gsp ag -5.1%, gsp antag 4.2% and ClpP mod -0.5%.
For Cn1c(-c2ccc(F)cc2)cnc1SCC(=O)Nc1ccccc1 the results were TRPML1 inh -10.8, TRPML1 ag 1.4, Menin MLL FP FL -2.5 and gsp ag -14.5%[15.4 µM].
`COc1ccccc1N1CCN(C(=O)CSc2nc(N)cc(=O)[nH]2)CC1` gave TRPML1 inh 11.3, TRPML1 ag 0.0, Menin MLL FP FL 0.4, gsp ag -28.1%, gsp antag -1.5% and ClpP mod 0.6%.
Clc1cc(Br)ccc1OCCn1ccnc1 was read as TRPML1 inh -0.9, TRPML1 ag -0.4, Menin MLL FP FL -0.3, gsp ag -44.4%[inhibitor], gsp antag 7.6% and ClpP mod -0.3%.
`O=C(CSc1nc2ccccc2c(=O)n1NC(=O)c1ccccc1)c1ccccc1` gave TRPML1 inh -2.0, TRPML1 ag -0.4, Menin MLL FP FL 2.5, gsp ag 24.1%, gsp antag -5.1% and ClpP mod -0.5%.
O=C(O)Cc1ccc(NC(=O)c2ccc3c(c2)C(=O)N(CC2CCCO2)C3=O)cc1 (stereo not drawn) was read as TRPML1 inh -13.5, TRPML1 ag 0.2, gsp ag 18.8%, gsp antag -0.5% and ClpP mod -7.4%.
O=c1oc2cc(Br)ccc2n1Cc1ccccc1 was read as TRPML1 inh 8.8, TRPML1 ag -0.7, Menin MLL FP FL -0.7, gsp ag -1.7%[15.4 µM], gsp antag -13.2% and ClpP mod -0.7%.
Screening CCCCSc1nnc(CNC(=O)C23CC4CC(CC(C4)C2)C3)n1Cc1ccccc1 returned TRPML1 inh 2.6, TRPML1 ag -0.4, Menin MLL FP FL 2.9, gsp ag -10.3%, gsp antag -14.2% and ClpP mod -0.6%.

Continued (two carried over from the part before).
O=c1oc2cc(Br)ccc2n1Cc1ccccc1 was read as TRPML1 inh 8.8, TRPML1 ag -0.7, Menin MLL FP FL -0.7, gsp ag -1.7%[15.4 µM], gsp antag -13.2% and ClpP mod -0.7%.
Screening CCCCSc1nnc(CNC(=O)C23CC4CC(CC(C4)C2)C3)n1Cc1ccccc1 returned TRPML1 inh 2.6, TRPML1 ag -0.4, Menin MLL FP FL 2.9, gsp ag -10.3%, gsp antag -14.2% and ClpP mod -0.6%.
CCOC(=O)N1CCN(C(=O)Cn2ncc3c4ccccc4n(Cc4ccc(F)cc4)c3c2=O)CC1 was read as TRPML1 inh 23.7, TRPML1 ag 1.9 and ClpP mod 3.7%.
For O=C(CSc1nnc(CNC(=O)c2ccccc2)o1)Nc1ccc2c(c1)OCO2 the results were TRPML1 inh -6.3, TRPML1 ag 0.3, Menin MLL FP FL -1.0, gsp ag -9.9%, gsp antag -3.5% and ClpP mod 2.0%.
O=C(Nc1ccc(C(=O)N2CCN(c3ccc(Cl)cc3)CC2)cc1)C1=CSCCO1 was read as TRPML1 inh 8.2, TRPML1 ag 0.6, gsp ag 3.4%, gsp antag inconclusive and ClpP mod 2.8%.
`CC1(C)CC(=O)C([N+](=O)[O-])=C(NCCCC(=O)O)C1` gave TRPML1 inh 4.9, TRPML1 ag -0.3, gsp ag -3.5%, gsp antag 1.5% and ClpP mod 14.1µM*.
For O=C(NCc1ccccc1)c1cc(-c2ccco2)on1 the results were TRPML1 inh -5.6, TRPML1 ag 0.4, Menin MLL FP FL 11.9, gsp ag 21.0%, gsp antag 8.0% and ClpP mod -3.6%.
`CC(C)Cc1nc2oc3c(NCCCN4CCOCC4)ncnc3c2c2c1CCC2` gave TRPML1 inh -10.2, TRPML1 ag -0.2, Menin MLL FP FL 4.3, gsp ag 11.4%, gsp antag 0.4% and ClpP mod inconclusive.
`C#CCOCCOCCOCCNc1nc(N2CCN(C(=O)C([C@@H](C)CC)n3cc(C(N)Cc4ccc(O)cc4)nn3)CC2)nc(N2CCN(C(=O)[C@H](CCC(=O)O)n3cc(C(N)[C@H](C)CC)nn3)CC2)n1` (stereo partly drawn) gave TRPML1 inh -8.0, TRPML1 ag -0.5, Menin MLL FP FL 5.4, gsp ag 1.3%, gsp antag 11.6% and ClpP mod 0.4%.
For CCOC(=O)N1CCN(CCC(=O)c2ccc(Cl)cc2)CC1 the results were TRPML1 inh 17.6, TRPML1 ag 0.6, Menin MLL FP FL 10.4, gsp ag -22.5%, gsp antag -5.2%[15.4 µM] and ClpP mod -3.4%.
For CC(C)Cn1c(NCCO)nc2ccccc21 the results were TRPML1 inh 2.1, TRPML1 ag 1.0, Menin MLL FP FL -1.0, gsp ag 6.1%, gsp antag 5.7% and ClpP mod -3.9%.
For O=C(CSc1nc2ncc(Cl)cc2[nH]1)c1ccc2c(c1)OCO2 the results were TRPML1 inh -11.6, TRPML1 ag 0.4, Menin MLL FP FL 3.8, gsp ag 15.0%[15.4 µM] and gsp antag -8.9%.
Screening CCc1ccc(NC(=O)Cn2nc(C(F)(F)F)c3c2CCC3)cc1 returned TRPML1 inh 7.5, TRPML1 ag 2.4, Menin MLL FP FL 0.1, gsp ag 0.0%, gsp antag -2.8% and ClpP mod -2.3%.
Cc1ccc(C(O)c2ncc(-c3ccc4ccccc4c3)[nH]2)c(C)c1 (stereo not drawn) was read as TRPML1 inh 19.1, TRPML1 ag -0.5 and ClpP mod 4.2%.
`CC1CCCC(C)N1C(=O)COC(=O)c1ccc(F)c(S(=O)(=O)N2CCOCC2)c1` (stereo not drawn) gave TRPML1 inh 9.8, TRPML1 ag -0.6, gsp ag 26.8%[15.4 µM], gsp antag 1.2% and ClpP mod inconclusive.
Screening CNC(=O)c1ccc(Nc2nnc(C)c3ccccc23)cc1 returned TRPML1 inh 6.6, TRPML1 ag -0.1, Menin MLL FP FL 7.9, gsp ag inconclusive, gsp antag 31.0% and ClpP mod -5.1%.
O=S(=O)(NCC(c1ccco1)N1CCc2ccccc21)c1ccccc1 (stereo not drawn) was read as TRPML1 inh 23.8, TRPML1 ag 1.1, gsp ag 5.0%[15.4 µM], gsp antag 3.2% and ClpP mod 1.1%.
For CC(=O)c1cccc(NC(=O)CCNC(=O)c2cccc(C)c2)c1 the results were TRPML1 inh -12.3, TRPML1 ag -0.5, Menin MLL FP FL 1.9, gsp ag 10.6% and gsp antag -5.4%.
CN(C)c1nc(NCc2ccccc2)nc(N/N=C/c2ccc(Br)cc2)n1 was read as TRPML1 inh -12.6, TRPML1 ag 1.6, Menin MLL FP FL -1.8, gsp ag inconclusive, gsp antag 2.2% and ClpP mod -2.0%.
`Oc1ccc(/C=N/Nc2cc(N3CCCC3)nc(N3CCCC3)n2)cc1O` gave TRPML1 inh 24.6, TRPML1 ag 0.1, Menin MLL FP FL 2.1, gsp ag 0.1%, gsp antag 8.7% and ClpP mod -3.0%.
O=C(c1ccc(N2CCCC2=O)cc1)N1CCN(c2cccc(C(F)(F)F)c2)CC1 was read as TRPML1 inh 4.8, TRPML1 ag -1.1, gsp ag -23.1%, gsp antag -8.9% and ClpP mod 0.9%.
`Cc1ccccc1OCC(=O)Nc1sc(C(=O)Nc2cccc(C)c2C)c(C)c1C#N` gave TRPML1 inh 43.2, TRPML1 ag 0.5, Menin MLL FP FL 0.6, gsp ag inconclusive, gsp antag 34.7%[activator] and ClpP mod -5.2%.
Screening Cc1cccc(OCC(=O)O/N=C(\N)c2ccc(Cl)cc2)c1 returned TRPML1 inh 7.1, TRPML1 ag 1.8, Menin MLL FP FL -3.4, gsp ag -9.6%, gsp antag 4.3% and ClpP mod -4.8%.
Screening CCc1cc(=O)oc2cc(OCC(=O)N3CCC[C@H]3C(=O)O)ccc12 returned Menin MLL FP FL -1.4, gsp antag -3.8% and ClpP mod 5.0%.
For COc1ccc(CC2(CO)CCN(Cc3cccc(OC)c3OC)CC2)cc1 the results were TRPML1 inh -10.5, TRPML1 ag -0.6, Menin MLL FP FL 2.5, gsp ag inconclusive, gsp antag -0.2% and ClpP mod 2.0%.
Screening CCCNC(=O)C12CCC(C)(C(=O)C1Br)C2(C)C (stereo not drawn) returned TRPML1 inh -10.0, TRPML1 ag -0.3, Menin MLL FP FL 2.1, gsp ag -21.8%, gsp antag 16.3% and ClpP mod 0.7%.
C[C@H](CO)N1C[C@H](C)[C@@H](CN(C)S(=O)(=O)c2ccccc2)Oc2ccc(NC(=O)Nc3ccc(C(F)(F)F)cc3)cc2C1=O was read as TRPML1 inh -17.3, TRPML1 ag 1.2, gsp antag 2.0% and ClpP mod -1.9%.
For COc1ccc(-c2nc(CSCC(=O)N3CCN(c4ccccc4F)CC3)c(C)o2)cc1 the results were TRPML1 inh 39.8, TRPML1 ag 3.5 and ClpP mod inconclusive.
Screening O=C(CSc1nnc(SCc2ccccc2)s1)N/N=C/C=C\c1ccco1 returned TRPML1 inh -1.1, TRPML1 ag 0.4, Menin MLL FP FL 13.7, gsp ag 8.6%, gsp antag -2.6% and ClpP mod -0.3%.
For CC(C)Nc1nnc(SC(C)C(=O)NCc2ccc3c(c2)OCO3)s1 (stereo not drawn) the results were TRPML1 inh -9.0, TRPML1 ag -0.8, Menin MLL FP FL 0.0, gsp ag -11.4% and gsp antag 9.9%.
For COc1ccc(-n2ncc3c2CC(C)(C)CC3NC(=O)CCc2c(C)noc2C)cc1 (stereo not drawn) the results were TRPML1 inh -0.6, TRPML1 ag -0.3, gsp ag -2.2%[15.4 µM], gsp antag -5.0% and ClpP mod 2.7%.
Screening O=C(/C=C/c1ccccc1Cl)OCC(=O)N1CCCC1 returned TRPML1 inh -24.1, TRPML1 ag 0.2, gsp ag -11.8%[15.4 µM], gsp antag -1.7% and ClpP mod 1.0%.
`CCn1cc(C(=O)OCC(=O)Nc2ccc(S(=O)(=O)N3CCCC3)cc2)c(=O)c2ccc(C)nc21` gave TRPML1 inh -10.1, TRPML1 ag -1.2, Menin MLL FP FL 4.7, gsp ag 3.3%, gsp antag 23.9% and ClpP mod 0.6%.
For Cc1ccccc1CNC(=O)c1ccc(NC(=O)c2nsc3ccccc23)cc1 the results were TRPML1 inh -10.5, TRPML1 ag 0.4 and ClpP mod inconclusive.

Assay outcomes as filed in PubChem BioAssay.
